Bioassay records (PubChem)
HSV replic up: increases HSV replication in cells; HSV replication augmentation in cells, fold increase; maximum fold increase; 220,000 tested, 0.005% active; AID 1956;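 active means peak rise of 1.5-fold or more in the series; tested in PC3 cells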;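 further: first round at 10 µM; read as green reporter fluorescence; hits show the peak of a series up to 25 µM; 1 = signal of infected wells without compound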
GALR2 ag: activates the human galanin receptor 2. O43603. GALR2-expressing cells, agonist activation read-out. 140,000 tested, 0.48% active. activation, %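 (tested at 5 µM)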. AID 803;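 active means above mean plus 3 SD of all compounds, about 5% in these data, not always enough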;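 further: 0% = vehicle buffer wells and 100% = reference agonist at full effect; tested in CHO reporter cells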
Target sequence (O43603 whole entry, looked up): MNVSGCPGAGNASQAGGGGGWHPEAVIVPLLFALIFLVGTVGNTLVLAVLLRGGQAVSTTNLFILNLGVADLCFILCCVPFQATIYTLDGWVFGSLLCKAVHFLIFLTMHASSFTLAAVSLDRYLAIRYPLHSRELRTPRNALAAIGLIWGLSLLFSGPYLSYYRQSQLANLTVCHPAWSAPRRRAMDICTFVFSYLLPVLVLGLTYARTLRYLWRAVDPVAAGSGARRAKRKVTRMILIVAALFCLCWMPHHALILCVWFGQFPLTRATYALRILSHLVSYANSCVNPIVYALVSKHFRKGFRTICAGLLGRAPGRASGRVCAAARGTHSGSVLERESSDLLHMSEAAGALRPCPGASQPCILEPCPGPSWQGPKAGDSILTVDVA
RGS16-Gao HTS: modulates binding between human RGS16 and Galphao; bead-based flow cytometry RGS16-Galphao binding, fluorescence; actives lie on both sides; binding response (% of control), % at 10 µM; 220,000 tested, 0.38% active;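 active means below 25% or above 175%, edge rows of some plates excepted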;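 further: Galphao activated by GDP with aluminum fluoride before binding; 100% = wells without compound and 0% = beads without RGS; some results beyond the cut were filed as inactive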
Target sequence (O15492 whole entry, looked up): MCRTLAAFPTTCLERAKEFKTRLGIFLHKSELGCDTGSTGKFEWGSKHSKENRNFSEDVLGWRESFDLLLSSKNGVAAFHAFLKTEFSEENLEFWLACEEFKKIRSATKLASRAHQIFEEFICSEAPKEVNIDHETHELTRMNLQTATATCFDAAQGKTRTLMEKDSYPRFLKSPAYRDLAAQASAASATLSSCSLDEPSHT
Target sequence (P09471 whole entry, looked up): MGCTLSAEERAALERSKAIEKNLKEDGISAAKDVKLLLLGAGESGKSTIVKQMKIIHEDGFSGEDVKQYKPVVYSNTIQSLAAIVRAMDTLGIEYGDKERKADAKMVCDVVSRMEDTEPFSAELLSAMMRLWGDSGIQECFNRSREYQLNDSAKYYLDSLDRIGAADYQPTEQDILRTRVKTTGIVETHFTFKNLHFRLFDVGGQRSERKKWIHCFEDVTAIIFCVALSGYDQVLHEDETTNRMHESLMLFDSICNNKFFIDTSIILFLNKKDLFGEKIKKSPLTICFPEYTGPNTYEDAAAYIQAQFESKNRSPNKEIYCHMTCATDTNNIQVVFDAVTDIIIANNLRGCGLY
INS promoter inh: TRM-6 insulin promoter activity inhibition | TRM-6 cells (human fetal islet line), insulin promoter-eGFP reporter, imaging; reporter expression induced with tamoxifen | inhibition, % at 2 µM | 130,000 tested, 0.9% active;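 active means inhibition above the mean plus 3 SD, with well images judged a real hit on visual review, cut at about 60% in these data, passing the limit was not always enough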
PKD1 kinase inh: PKD1 (human) kinase inhibition. 200,000 tested, 0.056% active. AID 797. PKD1 kinase fluorescence polarization assay. inhibition, %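 (about 10 µM by stock and volumes)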. Q15139;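 active means inhibition of 50% or more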;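 further: controls were vehicle for no effect and a reference inhibitor for full effect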
INS promoter inh cell count: second read-out of INS promoter inh, no call of its own (marks repeat the call); normalized cell count, %; measured here: cell count, toxicity; reference of the scale not given here;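 cells exposed to compound for 48 h; stained nuclei by imaging scaled within each plate; lower means fewer cells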
HSV replic up primary fold: recorded beside HSV replic up, whose call it bears; fold increase; compound at 10 µM; measured here: primary screen fold increase 10 uM; tested in PC3 cells;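 GFP signal in the first replicate; 1 = infected wells without compound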
The depositor's hits bear a star; i = inactive; . = no result given.

SMILES | HSV replic up | HSV replic up primary fold | GALR2 ag | RGS16-Gao HTS | INS promoter inh | INS promoter inh cell count | PKD1 kinase inh
CCCn1c(SCC(=O)NCc2ccco2)nnc1C(C)C | i | 1.02 | -1.6 | 105.6 | . | . | -3.7
Cc1ccc(NC(=O)Nc2ccc(F)cc2F)c(OC(F)F)c1 | i | 0.93 | . | 108.3 | . | . | -8.2
CCn1c(/C=N/Nc2ccc(C(=O)O)cc2)nc2ccccc21 | i | 0.89 | -0.3 | 110.4 | . | . | 7.2
CC(=O)NC12CC3CC(C1)CC(C(=O)OCC(=O)Nc1ncc(Cl)c(C)c1Cl)(C3)C2 | i | 0.86 | 0.1 | 96.3 | 53.9 | 114.8 | 3.9
O=S(=O)(/N=C(/c1ccc(F)cc1)N1CCCCC1)c1ccc(Cl)cc1 | i | 1 | 0.0 | 102.2 | 35.3 | 78.4 | 5.8
CCN(CC)S(=O)(=O)c1cccc(NC(=O)/C=C/c2ccc([N+](=O)[O-])cc2)c1 | i | 1.08 | 1.2 | 99.0 | . | . | 6.3
Cc1ccc(C(=O)NCCc2nnc3ccc(SCC(=O)Nc4ccccc4C)nn23)cc1 | i | 1.22 | -2.2 | 99.5 | -2.9 | 57.5 | -6.5
CCCNC(=O)CSc1nccn1Cc1ccco1 | i | 0.99 | . | 99.9 | . | . | -2.2
Cc1nn(CC2CC2)c(=O)n1N(C)c1ncc(C(F)(F)F)cc1Cl | i | 0.96 | . | 101.4 | . | . | 1.8
O=C(NC1CC1)c1ccc(C2SCC(=O)N2Cc2ccccc2)cc1 (centres undefined) | i | 1.14 | . | 96.9 | . | . | -5.1
Cc1nn2c(COc3ccc(NC(=O)c4ccccc4Cl)cc3)nnc2c2ccccc12 | i | 0.76 | -0.3 | 97.5 | 32.3 | 107.2 | -9.8
CSc1cccc(NC(=O)CN(c2ccc(C)cc2C)S(C)(=O)=O)c1 | i | 1.01 | 0.0 | 106.6 | -50.0 | 90.2 | -5.8
Cc1ccc(/C=N/Nc2cn[nH]c(=O)n2)o1 | i | 0.99 | . | 98.6 | -14.3 | 129.2 | 4.8
CC(=O)c1c(C)nc2nonc2c1N | . | . | -2.9 | 102.0 | . | . | -4.8
Cc1cc(C)c(C#N)c(SCC2COc3ccccc3O2)n1 (centres undefined) | i | 0.903 | -0.7 | 103.3 | 16.7 | 100.0 | -0.5
CC(C)N1CCN(Cc2ccc3c(c2)Cc2ccccc2-3)CC1CCO (centres undefined) | i | 0.87 | . | 100.2 | 13.0 | 187.1 | -7.8
Oc1ccccc1-c1cc(C(F)(F)F)nc(-c2ccccc2)n1 | i | 0.94 | . | 103.1 | . | . | -3.6
CCn1c(SCC(=O)N/N=C/C=C\c2ccccc2[N+](=O)[O-])nc2ccccc21 | i | 0.99 | -1.0 | 102.1 | 10.7 | 100.5 | 0.7
O=C(CCN1CCCCC1)N/N=C/c1c[nH]c2ccccc12 | i | 1.01 | . | 99.8 | . | . | .
Cc1cc(C)c(C)c(OCCCCn2cnc3ccccc3c2=O)c1 | i | 0.92 | -2.2 | 99.8 | -13.8 | 142.7 | -1.9
N#C/C(=C/c1ccc(CNS(=O)(=O)c2ccccc2)o1)C(N)=O | i | 0.95 | 0.1 | 118.4 | -8.1 | 112.1 | -8.0
O=C(COC(=O)Cc1ccc(Cl)cc1)Nc1ccc(OC(F)F)cc1 | i | 0.87 | 0.1 | 101.4 | . | . | -11.2
CCCn1c(Cc2ccccc2)n[nH]c1=S | i | 1.01 | -2.0 | 97.8 | -21.4 | 76.3 | 20.1
COc1ccc(NC(=O)CN(C)CC(=O)Nc2cccc(F)c2)cc1Cl | i | 0.89 | . | 104.0 | -18.9 | 63.6 | 5.5
CSCCC(NC(=O)/C(=C/c1ccc2c(c1)OCO2)NC(=O)c1cccc([N+](=O)[O-])c1)C(=O)O (centres undefined) | i | 1.05 | . | 105.0 | . | . | 6.8
COc1cc(C(=O)N(c2ccc(C)c(C)c2)C2C=CS(=O)(=O)C2)cc(OC)c1OC (centres undefined) | i | 0.87 | . | 99.8 | -42.1 | 97.1 | -6.5
COc1ccc2[nH]c3c(C)c4ccncc4c(C)c3c2c1 | i | 0.585 | . | 101.9 | . | . | .
CCOc1ccc(S(=O)(=O)N2CCN(C(=O)c3cc4c(s3)CCCC4)CC2)cc1 | i | 0.83 | -0.8 | 99.9 | 16.2 | 130.9 | 0.4
CC(=O)c1c(C)nc(-c2ccccc2)nc1NC(=O)C(C)C | i | 0.963 | -0.1 | 97.2 | -130.8 | 92.5 | -4.7
COc1cccc(-c2cc(C(=O)N3CCCCCC3)no2)c1 | i | 0.97 | -0.3 | 87.0 | . | . | -9.9

Shown with two lines to a compound: entries from further up
Each structure is followed by: HSV replic up | HSV replic up primary fold | GALR2 ag | RGS16-Gao HTS | INS promoter inh | INS promoter inh cell count | PKD1 kinase inh
CC(=O)c1c(C)nc2nonc2c1N
  . | . | -2.9 | 102.0 | . | . | -4.8
Cc1cc(C)c(C#N)c(SCC2COc3ccccc3O2)n1 (centres undefined)
  i | 0.903 | -0.7 | 103.3 | 16.7 | 100.0 | -0.5
CC(C)N1CCN(Cc2ccc3c(c2)Cc2ccccc2-3)CC1CCO (centres undefined)
  i | 0.87 | . | 100.2 | 13.0 | 187.1 | -7.8
Oc1ccccc1-c1cc(C(F)(F)F)nc(-c2ccccc2)n1
  i | 0.94 | . | 103.1 | . | . | -3.6
CCn1c(SCC(=O)N/N=C/C=C\c2ccccc2[N+](=O)[O-])nc2ccccc21
  i | 0.99 | -1.0 | 102.1 | 10.7 | 100.5 | 0.7

Carrying on.
SMILES | HSV replic up | HSV replic up primary fold | GALR2 ag | RGS16-Gao HTS | INS promoter inh | INS promoter inh cell count | PKD1 kinase inh
CC(C)(C)c1ccc(C(=O)c2c[nH]c(C(=O)NCCc3ccccn3)c2)cc1 | i | 1 | . | 102.6 | . | . | -3.0
CCn1c(-c2ccc(N(C)C)cc2)nc2ccccc21 | i | 0.92 | -4.3 | 99.4 | 38.5 | 82.1 | -7.2
Nc1n[nH]c2cc(=O)n(-c3ccc(Cl)cc3)nc12 | i | 1.03 | . | 102.1 | -41.2 | 128.8 | -0.7
O=C(Nc1ccccc1)C1CCCCC1 | i | 0.65 | -1.1 | 97.9 | -335.0 | 56.2 | -0.9
CCN(CCn1cccn1)Cc1cn[nH]c1-c1cccc2ccccc12 | i | 0.99 | . | 101.8 | . | . | .
Cc1nonc1CN(C)C(=O)CC1C(=O)NCCN1Cc1cccc(C(F)(F)F)c1 (centres undefined) | i | 0.82 | . | 105.5 | 28.6 | 131.8 | 2.8
COc1ccc(NC(=O)c2c3c(nc4ccccc24)CCN(Cc2ccccc2)C3)c(OC)c1 | i | 0.86 | . | 101.2 | -50.0 | 117.1 | 1.4
CC(C)NC(=S)NN=C1CCCCCCCCCCC1 | i | 0.94 | . | 101.8 | . | . | -5.3
COc1ccc(S(=O)(=O)N2CCC(C(=O)NCCC3=CCCCC3)CC2)cc1C | i | 0.91 | -0.8 | 114.3 | 42.9 | 85.1 | -5.9
COc1ccc(C(=O)NC=C2C(=O)OC(C)(C)OC2=O)cc1 | i | 0.89 | . | 100.2 | 0.0 | 68.7 | -7.2

Sorted by value in GALR2 ag (descending): three from the list above
canonical_smiles	GALR2 ag
COc1ccc(S(=O)(=O)N2CCC(C(=O)NCCC3=CCCCC3)CC2)cc1C	-0.8
O=C(Nc1ccccc1)C1CCCCC1	-1.1
CCn1c(-c2ccc(N(C)C)cc2)nc2ccccc21	-4.3

Carrying on.
SMILES | HSV replic up | HSV replic up primary fold | GALR2 ag | RGS16-Gao HTS | INS promoter inh | INS promoter inh cell count | PKD1 kinase inh
OC(CNCC#Cc1ccccc1)c1ccccc1 (centres undefined) | i | 0.99 | . | 104.9 | -38.1 | 102.9 | -10.7
CCCCn1cnc2cc(C)c(C)cc21 | i | 0.93 | . | 99.4 | . | . | 0.3
CCOc1ccc(C2N(c3ccc(F)cc3)C(=O)C3CCCN32)cc1 (centres undefined) | i | 1.21 | -0.8 | 107.3 | . | . | -8.0
Cn1c(=O)cc(OCC(=O)NCc2cccs2)c2ccccc21 | i | 0.85 | . | 102.0 | 13.3 | 88.8 | -3.1
N#CCC(=O)NC(=O)NCC1CC1 | i | 0.86 | -1.5 | 108.4 | -9.1 | 118.0 | -2.9
CCCCn1nnnc1NCc1cc(OC)c(OC)c(OC)c1 | i | 1.13 | -0.9 | 106.8 | . | . | -5.1
O=C(/C=C/c1ccco1)OCC1CCCN2CCCCC12 (centres undefined) | i | 1.02 | . | 116.3 | . | . | -2.8
O=C(c1ccc(F)cc1)N(C(=O)c1ccc(F)cc1)c1ncccn1 | i | 1.1 | . | 109.7 | . | . | -0.3
O=C(Nc1ccc(Cl)cc1)Nc1nnc(CSc2ccc(Cl)cc2)s1 | i | 1 | 0.6 | 100.7 | . | . | 11.8
Cc1onc(-c2ccccc2Cl)c1C(=O)N1C=CC(C(F)(F)Cl)=NCC1 | i | 1.03 | -1.9 | 89.5 | -42.9 | 94.1 | -9.0
O=S(=O)(Nc1nc2ccccc2nc1Cl)c1ccccc1 | i | 1.12 | -1.5 | 54.4 | . | . | 4.8
Cc1ccccc1CSc1nc(-c2ccccc2)cc(=O)[nH]1 | i | 1.12 | -0.9 | 93.9 | . | . | -5.7
COc1ccc2c(c1)c1ncn(Cc3ccco3)c(=O)c1n2C | i | 0.98 | 1.1 | 97.9 | 27.8 | 62.2 | 5.9
Brc1ccc(/C=N/c2nc3ccccc3n2CCN2CCOCC2)cc1 | i | 1 | -2.4 | 101.8 | . | . | -6.2
O=C(C1CC1)N1CCc2cc(S(=O)(=O)NC3CCN(Cc4ccccc4)CC3)ccc21 | . | . | -1.8 | 97.6 | 43.8 | 97.1 | -10.3
Cc1cc(C)c(NC(=O)C2CC(=O)N(c3ccc4c(c3)OCCO4)C2)c(C)c1 (centres undefined) | i | 1.05 | -1.8 | 107.4 | 13.3 | 114.7 | -9.5
COc1ccc(C)cc1NC(=O)COC(=O)C1CCN(C(=O)c2ccc(Cl)cc2)CC1 | i | 1.02 | . | 92.4 | 5.9 | 62.3 | -1.5
O=S(=O)(Nc1nc2ccccc2[nH]1)c1ccc2ccccc2c1 | i | 0.87 | -2.0 | 82.9 | 34.4 | 46.3 | -4.8
COc1cc(OC)cc(C(=O)NCC(=O)N2CCCCC2)c1 | i | 1.06 | -2.8 | 103.1 | . | . | -1.2
Cc1cc(C(=O)CSCCCn2c(=O)[nH]c3ccccc32)c(C)n1C | i | 1.1 | -0.8 | 101.9 | 37.8 | 79.0 | -3.4
CC(O)CNCc1cccc2ccccc12 (centres undefined) | i | 0.89 | -0.7 | 124.0 | -40.0 | 130.5 | -8.9
CCOC(=O)c1c(NS(C)(=O)=O)sc2c1CCC(C)C2 (centres undefined) | i | 1.03 | -2.5 | 106.5 | -36.4 | 120.8 | -1.4
Cc1ccc(Cl)cc1NC(=O)C(=O)N1CCCCC1 | i | 0.99 | . | 94.6 | -161.5 | 87.9 | 2.2
CCN(C1=NS(=O)(=O)c2ccccc21)N(CC)S(=O)(=O)c1ccc(C)cc1 | i | 0.85 | . | 97.0 | . | . | 3.3
CCOC(=O)C[n+]1c(C)ccc2c1CCC2 | i | 0.8 | -2.0 | 104.5 | 23.8 | 89.7 | 2.9
Cc1ccc(/C=C/C(=O)OC(C)C(=O)Nc2ncc(Cl)cc2Cl)o1 (centres undefined) | i | 0.94 | -0.3 | 104.7 | 7.4 | 60.5 | -12.2
CC(=O)c1ccc(N2CCN(C(=O)CCC(=O)c3cccs3)CC2)cc1 | i | 1 | . | 102.8 | 28.6 | 124.8 | -1.9
COc1ccc(Sc2nc(-c3ccccc3)ncc2OC)cc1 | i | 0.95 | . | 105.2 | 46.7 | 78.3 | -4.0
O=c1cc(-c2ccncc2)oc2ccccc12 | i | 0.93 | -5.2 | 126.0 | 3.2 | 120.8 | 2.4
COc1cccc(NC(=O)C(Sc2nnc(Nc3ccccc3C)s2)c2ccccc2)c1 (centres undefined) | i | 0.76 | -0.6 | 109.3 | 9.1 | 98.7 | -11.7
O=C1CCCN1CCCNS(=O)(=O)c1ccc(Br)cc1 | i | 0.92 | . | 109.1 | . | . | 3.2
CC1=Nc2ccccc2N=C(N)C1c1ccccc1 (centres undefined) | i | 0.89 | . | 101.0 | . | . | -0.7
Cn1c(=O)cc(OCC(=O)NCCCN2CCN(c3cccc(Cl)c3)CC2)c2ccccc21 | i | 1.09 | -1.0 | 103.7 | . | . | -2.7
O=C(O)C1CCC(Cn2c(SCc3cc(=O)n4ccccc4n3)nc3ccsc3c2=O)CC1 (centres undefined) | i | 0.86 | . | 101.9 | 21.4 | 117.4 | 4.5
COc1ccc(-c2csc(NC(=S)NC(=O)c3cccs3)n2)cc1OC | i | 0.87 | . | 95.2 | . | . | 4.1
CCc1ccc(NC(=O)C2C3/C=C\CCCCC32)cc1 (centres undefined) | i | 0.74 | 0.4 | 107.4 | -23.1 | 130.5 | 7.6
